Assay outcomes: PubChem, several laboratories
UCH37 inh: inhibitors of human deubiquitinating enzyme UCH37. Q9Y5K5. purified proteasome/UCH37, Ub-AMC cleavage fluorescence. inhibition, % (concentration not given with the values). hit rate 0.33% among 330,000;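 active = mean of two replicates above 20%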;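 note: 0% = compound-free wells with enzyme and 100% = wells lacking proteasome; stock transfer was 100 nL into about 20 µL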
Target sequence (Q9Y5K5 whole entry, looked up): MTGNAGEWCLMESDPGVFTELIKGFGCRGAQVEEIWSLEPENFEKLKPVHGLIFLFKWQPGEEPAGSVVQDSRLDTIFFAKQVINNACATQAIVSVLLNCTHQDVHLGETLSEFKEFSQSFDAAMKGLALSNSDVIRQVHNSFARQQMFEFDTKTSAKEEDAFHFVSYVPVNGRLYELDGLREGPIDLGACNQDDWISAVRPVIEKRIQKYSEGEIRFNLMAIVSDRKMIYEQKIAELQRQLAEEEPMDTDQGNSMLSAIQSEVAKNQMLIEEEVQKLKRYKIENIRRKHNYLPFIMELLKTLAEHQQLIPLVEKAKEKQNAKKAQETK
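Material: Human UCH37 enzyme supplied as purified proteasome complex | Schedule: 30 min preincubation with enzyme, 25 min cleavage at room temperature | Detection: AMC fluorescence 355/460 nm | Measure: % inhibition of Ub-AMC cleavage fluorescence | Controls: Wells without proteasome as full block, compound-free enzyme plus substrate as uninhibited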
Ecoli growth: E. coli growth inhibition; Escherichia coli growth, OD600, 23 h; stronger effect = lower value; OD600 absorbance (test concentration not listed); hit rate 0.21% among 330,000;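 active = OD600 absorbance below the run mean of sample wells minus 3.6 SD, in any replicate, cut at about 0.56 in these data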;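 note: stock transfer was 300 nL into about 60 µL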
HNF4A DNA FP: change in binding of human HNF4 alpha to DNA; hit rate 0.3% among 360,000; P41235; HNF4a-FITC DNA binding, fluorescence polarization, 1 h; activity change, % at 10 µM; AID 1224865; in the data active = activity change above about 30%, passing the limit was not always enough;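 note: controls were the assay level and a saturating level of protein; the project sought stronger binding though the title names inhibitors; some compounds called inactive have numbers as strong as hits; positive values seem to mean higher polarization but the record does not say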
Target sequence (P41235 whole entry, looked up): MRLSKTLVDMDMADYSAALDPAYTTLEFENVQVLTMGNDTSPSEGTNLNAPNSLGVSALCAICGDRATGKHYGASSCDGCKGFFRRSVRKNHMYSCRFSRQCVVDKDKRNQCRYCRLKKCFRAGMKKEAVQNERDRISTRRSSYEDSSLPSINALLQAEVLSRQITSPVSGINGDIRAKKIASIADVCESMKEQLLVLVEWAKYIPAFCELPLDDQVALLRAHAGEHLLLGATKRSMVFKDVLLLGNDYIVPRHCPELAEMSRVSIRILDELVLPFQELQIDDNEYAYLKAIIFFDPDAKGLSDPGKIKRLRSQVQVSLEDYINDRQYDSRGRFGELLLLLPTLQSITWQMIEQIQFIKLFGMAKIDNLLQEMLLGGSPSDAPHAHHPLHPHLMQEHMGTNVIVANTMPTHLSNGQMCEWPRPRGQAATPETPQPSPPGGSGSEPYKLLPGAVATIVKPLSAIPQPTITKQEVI
ALR H2O2 inh: inhibitors of human sulfhydryl oxidase ALR | P55789 | purified ALR, DTT oxidation, H2O2 HRP-luminol luminescence | inhibition, % (no concentration beside the values) | hit rate 3.8% among 290,000;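 active = mean and each replicate at 75% or more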;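 note: stock transfer was 7.5 nL into about 7.5 µL; 0% = neutral wells and 100% = wells with inactivated enzyme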
LANA-H2A inh: blocks KSHV LANA binding to histone H2A/H2B; Q9QR71; cell-free LANA-H2A/H2B peptide, fluorescence polarization; inhibition, % (concentration not given with the values); hit rate 0.6% among 320,000; AID 2629; in the data active = inhibition mostly above about 10%, no sharp cut-off; inactive = mostly below about 6.7%;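 note: stock transfer was 7.5 nL into about 10 µL; 0% = median of vehicle wells and 100% = median of positive control wells; one replicate is shown; the record names a cut of 25% in any replicate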
FGF22 binding: shifts melting point of recombinant human FGF22; Q9HCT0; recombinant FGF22 thermal shift, SYPRO orange fluorescence; percent of sucrose octasulfate shift, DMSO zero; calls only at 9.99 µM; hit rate 1.5% among 340,000; AID 651658;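 active = melting point raised past a set limit in the mean and every replicate; three in four hits are not shown here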
Target sequence (Q9HCT0 whole entry, looked up): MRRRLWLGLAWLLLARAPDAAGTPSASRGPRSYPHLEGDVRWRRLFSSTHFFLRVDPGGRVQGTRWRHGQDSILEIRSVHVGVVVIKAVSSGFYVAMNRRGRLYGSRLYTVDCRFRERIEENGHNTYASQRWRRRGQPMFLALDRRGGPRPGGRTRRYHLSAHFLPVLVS
Beta2AR agonist: human beta-2 adrenergic receptor agonism by FAP | P07550 | Am2.2-beta2AR cells, FAP receptor internalization, flow cytometry; reference of the scale not given here | hit rate 0.43% among 340,000 | response, % (test concentration not listed);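 active = response above a set limit, near 3 SD of response in nonfluorescent compounds, cut at about 42% in these data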;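 note: stock transfer was 100 nL into about 11 µL; a reference agonist was the positive control; negative values mostly stem from fluorescent compounds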
* marks the source's active call; other numbers are inactive results. Some of the compounds tested (hit frequency here may not be typical).

COc1ccccc1NC(=S)NNC(=O)c1ccncc1 was read as UCH37 inh 9.2, Ecoli growth 0.717, HNF4A DNA FP 2.9, ALR H2O2 inh 28.9, LANA-H2A inh 1.5 and Beta2AR agonist 8.5.
Screening O=C(O)/C=C/C(=O)N1CCN(c2ccccc2F)CC1 returned UCH37 inh 6.3, Ecoli growth 0.69, HNF4A DNA FP 0.6, ALR H2O2 inh -6.7, LANA-H2A inh 4.3, FGF22 binding inactive and Beta2AR agonist 4.0.
`COc1ccccc1NC(=O)CSc1nnc(Cc2ccccc2)o1` gave UCH37 inh 4.2, Ecoli growth 0.652, HNF4A DNA FP 0.9, ALR H2O2 inh -1.2, LANA-H2A inh 1.2, FGF22 binding inactive and Beta2AR agonist 17.1.
Screening Cc1ccc(Cl)cc1N1CCN(C(=O)Cc2c(C(=O)O)[nH]c3ccccc23)CC1 returned UCH37 inh 6.2, Ecoli growth 0.686, HNF4A DNA FP -0.9, ALR H2O2 inh 50.2, LANA-H2A inh -6.1, FGF22 binding inactive and Beta2AR agonist 2.5.
Screening COc1ccc(C(C(=O)NCC2CCCO2)N(Cc2ccccc2)C(=O)c2snc(C(N)=O)c2N)cc1OC (centres undefined) returned HNF4A DNA FP -0.5, LANA-H2A inh -1.7 and Beta2AR agonist 3.5.
CCOC(=O)C1CCN(Cc2ccccc2C(F)(F)F)CC1 was read as UCH37 inh 4.3, Ecoli growth 0.635, HNF4A DNA FP -3.0, ALR H2O2 inh -1.7, LANA-H2A inh -4.7 and Beta2AR agonist 8.7.
Screening CC(=O)c1ccc(NC(=O)c2cc(C)nc3ccccc23)cc1 returned UCH37 inh 6.7, Ecoli growth 0.676, HNF4A DNA FP -0.3, ALR H2O2 inh 2.7, LANA-H2A inh 3.0, FGF22 binding inactive and Beta2AR agonist -3.2.
COC(=O)Cc1nc(Nc2ccccc2)sc1C was read as UCH37 inh 3.6, Ecoli growth 0.683, HNF4A DNA FP 0.1, ALR H2O2 inh 99.3*, LANA-H2A inh -2.4, FGF22 binding inactive and Beta2AR agonist 11.1.
COc1cccc(CNS(=O)(=O)c2c(C)nc3sccn3c2=O)c1 was read as UCH37 inh 0.3, Ecoli growth 0.625, HNF4A DNA FP -6.5, ALR H2O2 inh -7.6, LANA-H2A inh -5.7, FGF22 binding inactive and Beta2AR agonist 4.4.
Screening O=C1CSC(c2ccc(Cl)cc2)N1Nc1nc(N2CCOCC2)nc(N2CCOCC2)n1 (centres undefined) returned UCH37 inh -1.0, Ecoli growth 0.643, HNF4A DNA FP 1.3, ALR H2O2 inh -6.6, LANA-H2A inh 3.3, FGF22 binding inactive and Beta2AR agonist -13.0.
Screening CC(CNc1ccc([N+](=O)[O-])cc1)NC(=O)c1ccccc1Br (centres undefined) returned UCH37 inh 4.2, Ecoli growth 0.721, HNF4A DNA FP 1.5, ALR H2O2 inh 1.7, LANA-H2A inh 1.6 and Beta2AR agonist -6.3.
CC(Sc1nnc(-c2cccnc2)n1-c1ccccc1)C(=O)NCc1ccc2c(c1)OCO2 (centres undefined) was read as UCH37 inh -0.6, Ecoli growth 0.684, HNF4A DNA FP -0.9, ALR H2O2 inh -5.0, LANA-H2A inh 0.7, FGF22 binding inactive and Beta2AR agonist -10.3.
Screening Nc1nc(SCC(=O)Nc2ccccc2Sc2ccccc2)n[nH]1 returned UCH37 inh 1.0, Ecoli growth 0.731, HNF4A DNA FP 1.0, ALR H2O2 inh 1.4, LANA-H2A inh -28.6 and Beta2AR agonist 7.6.
O=C(Nc1ccc2nc3n(c(=O)c2c1)CCCCC3)c1ccccc1[N+](=O)[O-] was read as UCH37 inh 1.9, Ecoli growth 0.657, HNF4A DNA FP -4.5, ALR H2O2 inh -4.3, LANA-H2A inh 3.0, FGF22 binding inactive and Beta2AR agonist 2.5.
`COc1ccc(Cl)cc1NC(=O)CCN1CCOCC1` gave UCH37 inh 1.6, Ecoli growth 0.673, HNF4A DNA FP -1.4, ALR H2O2 inh -5.1, LANA-H2A inh 2.6, FGF22 binding inactive and Beta2AR agonist -2.5.
CCOC(=O)c1ccc(N2C(=O)C3ON(c4ccccc4)C(c4ccco4)C3C2=O)cc1 (centres undefined) was read as UCH37 inh 7.9, Ecoli growth 0.721, HNF4A DNA FP -0.8, ALR H2O2 inh -3.0, LANA-H2A inh -2.1 and Beta2AR agonist 3.5.
CCOc1cc(/C=N/NC(=O)c2nn(C)cc2Br)ccc1OCc1ccccc1 was read as HNF4A DNA FP -2.9, ALR H2O2 inh -3.0, LANA-H2A inh 0.2 and Beta2AR agonist 4.9.
Screening NC(=S)Cc1nc(-c2ccc(Cl)cc2)cs1 returned UCH37 inh 1.8, Ecoli growth 0.601, HNF4A DNA FP 6.7, ALR H2O2 inh 25.2, LANA-H2A inh -1.7, FGF22 binding inactive and Beta2AR agonist -5.0.
CCO[C@H]1c2c(ccc3ccc(=O)oc23)OC(C)(C)[C@H]1O was read as UCH37 inh -17.3, HNF4A DNA FP -0.6, ALR H2O2 inh -2.2, LANA-H2A inh -1.9, FGF22 binding inactive and Beta2AR agonist 4.3.
For COC(=O)CNC(=O)c1ccccc1 the results were UCH37 inh 0.6, Ecoli growth 0.75, HNF4A DNA FP 0.4, ALR H2O2 inh -17.3, LANA-H2A inh 5.7, FGF22 binding inactive and Beta2AR agonist -4.5.
For Nn1c(SCC(=O)Nc2ccc(N3CCOCC3)cc2)nnc1-c1cccc(F)c1 the results were UCH37 inh 4.1, Ecoli growth 0.675, HNF4A DNA FP 1.2, ALR H2O2 inh 98.7*, LANA-H2A inh 0.7, FGF22 binding inactive and Beta2AR agonist 6.4.
O=C(CN(C(=O)CNC(=O)c1cccs1)c1cccc(F)c1)NC1CCCC1 was read as UCH37 inh -0.3, Ecoli growth 0.692, HNF4A DNA FP -2.0, ALR H2O2 inh -6.9, LANA-H2A inh -2.2, FGF22 binding inactive and Beta2AR agonist 1.2.
For O=C(Nc1ccccc1Cl)N1CCCN(c2nc(-c3ccccc3)ns2)CC1 the results were UCH37 inh 3.2, Ecoli growth 0.655, HNF4A DNA FP -0.9, ALR H2O2 inh 0.1, LANA-H2A inh -2.1, FGF22 binding inactive and Beta2AR agonist 1.4.
`C[C@H]1CN=C2N(CCNC(=O)CCC3CCCCC3)[C@H](Cc3ccc(O)cc3)CN21` gave UCH37 inh 1.6, HNF4A DNA FP -1.0, ALR H2O2 inh -31.0, LANA-H2A inh 0.4, FGF22 binding inactive and Beta2AR agonist -8.9.
COc1ccc(C(=O)NNC(=O)C2CCCO2)cc1 (centres undefined) was read as UCH37 inh 0.3, Ecoli growth 0.692, HNF4A DNA FP -1.1, ALR H2O2 inh -3.8, LANA-H2A inh 2.9, FGF22 binding inactive and Beta2AR agonist -3.4.
Screening COc1ccc(CC(=O)NNC(=O)c2cc(C)[nH]n2)cc1 returned HNF4A DNA FP 3.9, ALR H2O2 inh -20.2, LANA-H2A inh -3.3, FGF22 binding inactive and Beta2AR agonist 3.7.
Screening CC1(C)Cc2c(sc(NC(=O)C(=O)N3CCOCC3)c2C(N)=O)CO1 returned UCH37 inh 5.9, Ecoli growth 0.67, HNF4A DNA FP 0.3, ALR H2O2 inh 2.3, LANA-H2A inh -13.2, FGF22 binding inactive and Beta2AR agonist 0.9.
Screening CCOC(=O)c1cnn(CCOC(=O)c2ccc(F)cc2)c1NC(=O)c1ccc(F)cc1 returned UCH37 inh 3.3, Ecoli growth 0.676, HNF4A DNA FP -0.4, ALR H2O2 inh -2.3, LANA-H2A inh 2.2, FGF22 binding inactive and Beta2AR agonist -2.3.
C[C@H](CO)N1C[C@H](C)[C@@H](CN(C)Cc2ccc(C(=O)O)cc2)Oc2ccc(NS(C)(=O)=O)cc2C1=O was read as UCH37 inh 1.4, HNF4A DNA FP -0.9, ALR H2O2 inh 0.9, LANA-H2A inh 2.3, FGF22 binding inactive and Beta2AR agonist 3.4.
`COc1ccccc1CNC(=O)C1CCN(S(=O)(=O)c2ccc3c(c2)NC(=O)CO3)CC1` gave UCH37 inh 0.0, Ecoli growth 0.722, HNF4A DNA FP 2.4, ALR H2O2 inh -4.9, LANA-H2A inh -0.6, FGF22 binding inactive and Beta2AR agonist -0.1.
Screening O=C(NCC1CCCO1)c1ccc(COc2ccccc2)o1 (centres undefined) returned UCH37 inh 0.6, Ecoli growth 0.628, HNF4A DNA FP -4.1, ALR H2O2 inh -1.8, LANA-H2A inh 3.5, FGF22 binding inactive and Beta2AR agonist -2.3.
For CN(C(=O)COC(=O)CSc1ccc(C(N)=O)cc1[N+](=O)[O-])C1CCS(=O)(=O)C1 (centres undefined) the results were UCH37 inh 3.0, Ecoli growth 0.665, HNF4A DNA FP 2.6, ALR H2O2 inh -19.2, LANA-H2A inh -3.3, FGF22 binding inactive and Beta2AR agonist -4.9.
For O=C(NC(Cc1ccc(F)cc1)C(=O)O)c1ccccc1 (centres undefined) the results were UCH37 inh -1.5, Ecoli growth 0.688, HNF4A DNA FP -0.9, ALR H2O2 inh -3.8, LANA-H2A inh -2.6 and Beta2AR agonist 1.1.
For Cn1cc(C(=O)NC2CCCCC2)c(=O)c2cc(S(=O)(=O)N3CCCC3)ccc21 the results were UCH37 inh 3.6, Ecoli growth 0.715, HNF4A DNA FP 4.5, LANA-H2A inh 1.7 and Beta2AR agonist -5.8.
O=C(CC1Sc2ccccc2NC1=O)c1ccc(Br)cc1 (centres undefined) was read as UCH37 inh 1.3, Ecoli growth 0.673, HNF4A DNA FP 0.1, ALR H2O2 inh -2.4, LANA-H2A inh 2.5, FGF22 binding inactive and Beta2AR agonist -5.0.
For COc1cccc(CC(=O)OC(C)C(=O)NCc2ccc3c(c2)OCO3)c1 (centres undefined) the results were UCH37 inh 2.3, Ecoli growth 0.688, HNF4A DNA FP 3.9, ALR H2O2 inh -0.2, LANA-H2A inh 1.4, FGF22 binding inactive and Beta2AR agonist 1.7.
`Brc1ccccc1-n1nnc(-c2cnc3ccccc3c2)n1` gave HNF4A DNA FP 1.2, ALR H2O2 inh 2.5, LANA-H2A inh -1.3, FGF22 binding inactive and Beta2AR agonist -1.3.
`O=C(N/N=C/c1ccc(F)cc1)c1cccc(NC(=O)c2ccccc2Cl)c1` gave HNF4A DNA FP 2.0, ALR H2O2 inh 0.4, LANA-H2A inh 4.4, FGF22 binding inactive and Beta2AR agonist 10.2.
For N#Cc1c(/N=C/c2ccc(-c3ccccc3C(=O)O)o2)sc2c1CCCC2 the results were HNF4A DNA FP 1.6, LANA-H2A inh -4.4, FGF22 binding inactive and Beta2AR agonist -11.4.
`Cc1ccc(-c2nnc(COC(=O)c3cc(=O)[nH]c4ccccc34)o2)cc1` gave UCH37 inh -15.1, Ecoli growth 0.716, HNF4A DNA FP 2.1, ALR H2O2 inh -0.2, LANA-H2A inh -3.9, FGF22 binding inactive and Beta2AR agonist -2.6.
COc1ccccc1-c1cc(C(F)(F)F)n2ncc(S(=O)(=O)c3ccccc3)c2n1 was read as UCH37 inh -378.6, Ecoli growth 0.696, HNF4A DNA FP 0.0, ALR H2O2 inh -4.5, LANA-H2A inh 1.2 and Beta2AR agonist 8.3.
`CCC(=O)Nc1ccc2nc(C)n(Cc3ccccc3Cl)c(=O)c2c1` gave UCH37 inh -2.0, Ecoli growth 0.718, HNF4A DNA FP 3.7, ALR H2O2 inh -12.1, LANA-H2A inh 5.1 and Beta2AR agonist -9.7.
For Cc1nc(C2CCC3C4CCC5=CC(=O)CC[C@]5(C)C4CC[C@]23C)cs1 (some centres undefined) the results were ALR H2O2 inh -4.9, LANA-H2A inh -1.6 and FGF22 binding inactive.

Reprinted at random: 2 entries already listed, in no set order.
`Brc1ccccc1-n1nnc(-c2cnc3ccccc3c2)n1` gave HNF4A DNA FP 1.2, ALR H2O2 inh 2.5, LANA-H2A inh -1.3, FGF22 binding inactive and Beta2AR agonist -1.3.
Screening O=C(NCC1CCCO1)c1ccc(COc2ccccc2)o1 (centres undefined) returned UCH37 inh 0.6, Ecoli growth 0.628, HNF4A DNA FP -4.1, ALR H2O2 inh -1.8, LANA-H2A inh 3.5, FGF22 binding inactive and Beta2AR agonist -2.3.
